Calb FLC: C. albicans growth inhibition with fluconazole, primary screen, CaCi-2 strain, Alamar Blue fluorescence. C. albicans CaCi-2 (fluconazole-resistant clinical isolate) + fluconazole, 48 h. growth inhibition, % (concentration not given with the values). 300,000 tested, 0.57% active;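 active = most replicates above 75%; inconclusive = exactly half above 75%; inactive = most below 75%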;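 note: all wells also contain fluconazole at 8 µg/ml as a sub-toxic cotreatment; 0% = median of DMSO wells and 100% = median of geldanamycin control wells; wells of about 8 µL received 7.5 nL stock; the first replicate is given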
HNF4A DNA FP: change in binding of human HNF4A to DNA, primary screen, biochemical, fluorescence polarization, FITC-DNA; 1 h; activity change, % at 10 µM; 360,000 tested, 0.3% active; in the data active = activity change above about 30%, passing the limit was not always enough;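 note: controls were the assay level and a saturating level of protein; the project sought stronger binding though the title names inhibitors; some compounds called inactive have numbers as strong as hits; positive values seem to mean higher polarization but the record does not say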
Target sequence (P41235 whole entry, looked up): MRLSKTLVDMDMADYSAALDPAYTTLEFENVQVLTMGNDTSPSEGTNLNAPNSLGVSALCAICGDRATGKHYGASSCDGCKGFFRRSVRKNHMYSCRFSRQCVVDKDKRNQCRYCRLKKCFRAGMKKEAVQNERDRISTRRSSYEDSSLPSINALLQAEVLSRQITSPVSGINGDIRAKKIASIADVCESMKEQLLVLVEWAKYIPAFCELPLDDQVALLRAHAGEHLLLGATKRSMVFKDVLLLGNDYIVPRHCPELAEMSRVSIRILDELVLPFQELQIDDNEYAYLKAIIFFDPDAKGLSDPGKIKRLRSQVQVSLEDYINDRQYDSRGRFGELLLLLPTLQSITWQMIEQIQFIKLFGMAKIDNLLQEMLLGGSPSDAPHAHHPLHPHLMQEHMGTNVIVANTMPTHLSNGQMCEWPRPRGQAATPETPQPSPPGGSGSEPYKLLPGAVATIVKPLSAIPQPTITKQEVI
ALR inh: inhibitors of human ALR sulfhydryl oxidase, primary screen, biochemical, H2O2 detection, HRP-luminol luminescence, single point; AID 485317, 2010; purified ALR, DTT oxidation; 290,000 tested, 3.8% active; FAD-linked sulfhydryl oxidase ALR (Homo sapiens), P55789; inhibition, % (no concentration beside the values);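 active = mean and each replicate at 75% or more; inconclusive = only one of the two met; inactive = neither met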;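 note: stock transfer was 7.5 nL into about 7.5 µL; 0% = neutral wells and 100% = wells with inactivated enzyme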
Target sequence (P55789 whole entry, looked up): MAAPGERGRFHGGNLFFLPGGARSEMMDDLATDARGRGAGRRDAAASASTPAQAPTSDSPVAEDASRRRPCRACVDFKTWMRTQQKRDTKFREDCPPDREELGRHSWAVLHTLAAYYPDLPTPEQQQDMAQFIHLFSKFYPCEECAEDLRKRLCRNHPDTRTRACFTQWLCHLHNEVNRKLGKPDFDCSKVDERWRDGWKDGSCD
B2AR ag: beta2AR agonists driving receptor internalization, primary screen, cell-based, FAP fluorogen, flow cytometry. Beta-2 adrenergic receptor (Homo sapiens), P07550. Am2.2-beta2AR cells; reference of the scale not given here. response, % (test concentration not listed). 340,000 tested, 0.43% active. AID 504454, 2011;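 active = response above a set limit, near 3 SD of response in nonfluorescent compounds, cut at about 42% in these data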;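 note: stock transfer was 100 nL into about 11 µL; a reference agonist was the positive control; negative values mostly stem from fluorescent compounds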
Vif TR-FRET: inhibitors of Vif binding to APOBEC3G peptide, primary screen, biochemical, TR-FRET, GST-Vif 1-94, biotin-A3G peptide, dose response retest (AID 1117319). Virion infectivity factor (Human immunodeficiency virus type 1 group M subtype B (isolate …. TR-FRET GST-Vif / biotin-A3G peptide binding; higher % means a stronger effect; test concentration not given here; strong numbers were not always called active. inhibition, %; hits with a dose series show IC50 in µM. 260,000 tested, 0.57% active;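 active = above the screen mean plus three standard deviations and confirmed in dose response; inconclusive = results disagree or hit not tested in dose response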;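 note: Vif residues 1-94 fused to GST binding biotinylated APOBEC3G peptide 110-148; 0% = full assay without inhibitor and 100% = GST in place of GST-Vif; retest series ran down from 100 µM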
LANA-H2B inh: blockers of LANA interaction with H2A/H2B – biochemical, FP readout, HTS, primary screen; Protein LANA1 (Human herpesvirus 8 type P (isolate GK18)), Q9QR71; cell-free LANA-H2A/H2B peptide, fluorescence polarization; inhibition, % (test concentration not listed); 320,000 tested, 0.6% active; AID 2629, 2010; in the data active = inhibition mostly above about 10%, no sharp cut-off; inactive = mostly below about 6.7%;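 note: stock transfer was 7.5 nL into about 10 µL; 0% = median of vehicle wells and 100% = median of positive control wells; one replicate is shown; the record names a cut of 25% in any replicate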
RanGTP-Imp inh: inhibitors of RanGTP-importin-beta interaction, primary screen, biochemical, FRET, CFP-Ran, YFP-importin-beta, homogeneous. Ran GTPase (GTP-bound) - importin-beta complex. cell-free CFP-Ran/YFP-importin-beta FRET ratio. inhibition, % (test concentration not listed). 300,000 tested, 1.1% active. AID 2216, 2009;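 active = most replicates above 15%; inconclusive = exactly half above 15%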;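 note: 0% = DMSO wells and 100% = Ran loaded with GDP instead of GTP; wells of about 40 µL received 100 nL stock; the first replicate is given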
Active calls of the source: *; & = joins results of further samples. Outcome played no part in choosing rows; any-hit rate near 6.3%.

What do the screens show for `Cc1ccc(C(C)C)c(O)c1`?
Calb FLC: 16; HNF4A DNA FP: -1.8; ALR inh: -9; B2AR ag: -2; LANA-H2B inh: 2.6; RanGTP-Imp inh: 6.3

Results for COc1ccc2cnn(-c3ccc(C)cc3)c(=O)c2c1OC ?
Calb FLC: 21; HNF4A DNA FP: -3.0; ALR inh: 1; B2AR ag: 6; Vif TR-FRET: 3%; LANA-H2B inh: 0.5; RanGTP-Imp inh: 3.9

Results for CC(=O)c1ccc(N2CCN(C(=S)Nc3cccc(F)c3)CC2)cc1 ?
Calb FLC: 4; HNF4A DNA FP: -0.1; ALR inh: 0; B2AR ag: 1; Vif TR-FRET: -25%; LANA-H2B inh: -0.6; RanGTP-Imp inh: inconclusive

How did C=CCc1cc(/C=C2/NC(=O)NC2=O)cc(OCC)c1O do in these assays?
Calb FLC: -2; HNF4A DNA FP: -2.3; ALR inh: 9; B2AR ag: -2; Vif TR-FRET: 8%; LANA-H2B inh: 3.3; RanGTP-Imp inh: -1.3

What do the screens show for `COc1cccc(N2CCN(C3OC(=O)c4ccccc43)CC2)c1` (stereo not given)?
Calb FLC: 0; HNF4A DNA FP: -4.8; ALR inh: -7; B2AR ag: 3; Vif TR-FRET: 1%; LANA-H2B inh: 1.3; RanGTP-Imp inh: 11

What do the screens show for `COc1ccc2nc(Nc3nc4cc5c(cc4s3)OCCO5)sc2c1`?
Calb FLC: -5; HNF4A DNA FP: 0.3; B2AR ag: 11; LANA-H2B inh: 1.9; RanGTP-Imp inh: -3.2

What do the screens show for `Cc1c(C(=O)c2ccc(Cl)cc2[N+](=O)[O-])c2ccccn2c1CCC#N`?
Calb FLC: -10; HNF4A DNA FP: 0.3; ALR inh: 95*; B2AR ag: -12; Vif TR-FRET: -2%; LANA-H2B inh: 5.5; RanGTP-Imp inh: 0.3

How did Cn1c(N)c(C(=O)CSc2nn(-c3ccc(F)cc3)c(=S)s2)c(=O)n(C)c1=O do in these assays?
HNF4A DNA FP: 7.0; ALR inh: -7; B2AR ag: -2; Vif TR-FRET: 24%; LANA-H2B inh: 3.6

Results for Cc1c(/C=N\NC(=O)c2c[nH]c3ccccc23)cnn1C ?
Calb FLC: -15; HNF4A DNA FP: 7.6; ALR inh: -2; B2AR ag: -8; Vif TR-FRET: 24%; LANA-H2B inh: -3.9; RanGTP-Imp inh: -2.7

Results for Cc1ccccc1C(=O)N1CCc2ccccc2C1 ?
Calb FLC: -17; HNF4A DNA FP: 1.4; ALR inh: -5; B2AR ag: -5; Vif TR-FRET: -1%; LANA-H2B inh: 1.9; RanGTP-Imp inh: 0.0

How did CCC(C)(C)NC(=O)C(c1ccc(C)cc1)N(CC1CCCO1)C(=O)CCC(=O)Nc1ccccn1 (stereo not given) do in these assays?
Calb FLC: -1; HNF4A DNA FP: -0.2; ALR inh: -9; B2AR ag: -13; LANA-H2B inh: 9.5; RanGTP-Imp inh: 1.9

What do the screens show for `CCOC(=O)/C(N=Nc1ccc(C(=O)O)cc1[N+](=O)[O-])=C(\C)O`?
Calb FLC: 0; HNF4A DNA FP: 0.1; ALR inh: 11; B2AR ag: -2; Vif TR-FRET: 2%; LANA-H2B inh: 1.5; RanGTP-Imp inh: -2.0

Results for N/C(=N\OC(=O)COc1cc(Cl)c(Cl)cc1Cl)c1ccncc1 ?
Calb FLC: 5; ALR inh: -10; Vif TR-FRET: 31%; LANA-H2B inh: 5.7; RanGTP-Imp inh: -2.7

Results for COCCCn1c(=O)c2sccc2n(Cc2cccc(C)c2)c1=O ?
Calb FLC: 6; HNF4A DNA FP: 1.5; ALR inh: -10; B2AR ag: -4; Vif TR-FRET: -3%; LANA-H2B inh: 2.6; RanGTP-Imp inh: 4.7

What do the screens show for `O=C(COC(=O)c1c(F)cccc1F)Nc1ccccc1OC(F)F`?
Calb FLC: -9; HNF4A DNA FP: 0.5; ALR inh: -5; B2AR ag: -8; LANA-H2B inh: 0.3; RanGTP-Imp inh: 1.2

Results for COc1ccc(CCNC(=O)C(=O)NCC2OCCN2C(=O)c2ccc(Cl)cc2)cc1OC (stereo not given) ?
Calb FLC: -1; HNF4A DNA FP: 1.1; ALR inh: 12; B2AR ag: -2; Vif TR-FRET: -5%; LANA-H2B inh: 1.0; RanGTP-Imp inh: 6.2

How did C/C(=N\NC(=O)c1ccccc1)C1C2C=CC(C2)C1(C)C (stereo not given) do in these assays?
Calb FLC: -9; HNF4A DNA FP: -6.9; ALR inh: -12; B2AR ag: -3; Vif TR-FRET: 3%; LANA-H2B inh: 0.9; RanGTP-Imp inh: -1.3

Results for O=C(CSc1ccc2c(c1)OCCO2)NCc1ccccc1 ?
Calb FLC: -1; HNF4A DNA FP: 0.0; ALR inh: -23; B2AR ag: 1; Vif TR-FRET: inconclusive; LANA-H2B inh: -3.4; RanGTP-Imp inh: -1.3

Results for OC1(C#CCN2CCCC2)c2ccccc2-c2ccccc21 ?
Calb FLC: -1; HNF4A DNA FP: 2.5; ALR inh: -21; B2AR ag: 4; LANA-H2B inh: 4.5; RanGTP-Imp inh: -0.8

Results for S=c1nc(-c2csc3c2CCCC3)[nH][nH]1 ?
Calb FLC: -58; HNF4A DNA FP: 3.5; ALR inh: 99*; B2AR ag: 0; Vif TR-FRET: 8%; LANA-H2B inh: -2.7; RanGTP-Imp inh: 8.2

How did Cc1ccc(-c2noc(CCC(=O)NCCCN3CCN(c4cccc(Cl)c4)CC3)n2)cc1 do in these assays?
Calb FLC: 3; HNF4A DNA FP: 4.0; ALR inh: 0; B2AR ag: 11; Vif TR-FRET: -2%&-5%; LANA-H2B inh: 2.6; RanGTP-Imp inh: 3.0

How did CCOc1ccc(C(CC(=O)O)NC(=O)C2c3ccccc3Oc3ccccc32)cc1 (stereo not given) do in these assays?
Calb FLC: 52; HNF4A DNA FP: 0.4; ALR inh: -32; B2AR ag: -1; Vif TR-FRET: inconclusive; LANA-H2B inh: 3.9; RanGTP-Imp inh: 0.8

What do the screens show for `O=C(CCCc1ccccc1)Nc1ccnn1C1CCN(Cc2ccc(Cl)cc2)CC1`?
Calb FLC: -13; HNF4A DNA FP: -3.5; ALR inh: -2; B2AR ag: -7; LANA-H2B inh: 4.6; RanGTP-Imp inh: 1.7

How did O=C1OC[C@H]2CCCN2C(=O)[C@@H](CC(=O)N(CCO)Cc2ccccc2)C/C=C\CC[C@H]1Cc1ccc(F)cc1 do in these assays?
HNF4A DNA FP: 8.4; ALR inh: 5; B2AR ag: 5; LANA-H2B inh: 4.0

How did Cc1ccc(C(=O)N2CCC(C(=O)Nc3cccc([N+](=O)[O-])c3)CC2)cc1 do in these assays?
Calb FLC: 3; HNF4A DNA FP: 2.0; ALR inh: -9; B2AR ag: -4; LANA-H2B inh: 1.8; RanGTP-Imp inh: -1.6

How did CC(C)NC(=O)c1onc(CSc2ccccc2)c1C(=O)O do in these assays?
Calb FLC: -2; HNF4A DNA FP: 2.6; ALR inh: 33; B2AR ag: 9; Vif TR-FRET: -1%; LANA-H2B inh: -2.3; RanGTP-Imp inh: -1.4

Results for COc1ccc(C(=O)NCc2nnc(SCC(=O)N3CCc4ccccc43)o2)cc1OC ?
Calb FLC: -1; HNF4A DNA FP: -2.3; ALR inh: -9; B2AR ag: 0; Vif TR-FRET: inconclusive; LANA-H2B inh: 3.5; RanGTP-Imp inh: 8.1

What do the screens show for `Cc1cc(C)n2nc(SCCCC(=O)c3ccc(F)cc3)nc2n1`?
Calb FLC: 18; HNF4A DNA FP: 3.3; ALR inh: 0; B2AR ag: -1; Vif TR-FRET: -1%; LANA-H2B inh: 3.1; RanGTP-Imp inh: 1.4

How did COC(=O)C1CCN(C(=O)Cc2ccc(C)cc2)CC1 do in these assays?
Calb FLC: -8; HNF4A DNA FP: -0.9; ALR inh: 5; B2AR ag: 6; Vif TR-FRET: 22%; LANA-H2B inh: -4.3; RanGTP-Imp inh: -1.5

Results for COc1ccccc1N1CCN(C(=O)c2cccc(N3C(=O)NC4CC3(C)Oc3c(OC)cccc34)c2)CC1 (stereo not given) ?
Calb FLC: -5; HNF4A DNA FP: -2.1; ALR inh: 13; B2AR ag: -3; Vif TR-FRET: -1%; LANA-H2B inh: -4.5; RanGTP-Imp inh: -4.5

Quoted from the entries so far, 3 compounds:
What do the screens show for `Cc1ccc(C(C)C)c(O)c1`?
Calb FLC: 16; HNF4A DNA FP: -1.8; ALR inh: -9; B2AR ag: -2; LANA-H2B inh: 2.6; RanGTP-Imp inh: 6.3

Results for COc1ccc2cnn(-c3ccc(C)cc3)c(=O)c2c1OC ?
Calb FLC: 21; HNF4A DNA FP: -3.0; ALR inh: 1; B2AR ag: 6; Vif TR-FRET: 3%; LANA-H2B inh: 0.5; RanGTP-Imp inh: 3.9

Results for CC(=O)c1ccc(N2CCN(C(=S)Nc3cccc(F)c3)CC2)cc1 ?
Calb FLC: 4; HNF4A DNA FP: -0.1; ALR inh: 0; B2AR ag: 1; Vif TR-FRET: -25%; LANA-H2B inh: -0.6; RanGTP-Imp inh: inconclusive

(next part)
How did COc1ccc(Cl)cc1NC(=O)CSc1nnc(COc2ccccc2)n1N do in these assays?
Calb FLC: -1; HNF4A DNA FP: 3.5; ALR inh: -11; B2AR ag: -13; Vif TR-FRET: 6%; LANA-H2B inh: 2.1; RanGTP-Imp inh: -3.2

Results for COc1ccc(Cl)cc1C(=O)N/N=C/c1ccc(N2CCOCC2)cc1 ?
Calb FLC: -11; HNF4A DNA FP: -3.2; ALR inh: -10; B2AR ag: 10; Vif TR-FRET: -12%; LANA-H2B inh: -8.7; RanGTP-Imp inh: -0.5

What do the screens show for `CCCCC1=CC2=CC(=O)C(C)(OC(=O)CC)C(=O)C2=CN1C1CCCCC1` (stereo not given)?
Calb FLC: 26; HNF4A DNA FP: 0.3; ALR inh: -8; B2AR ag: 25; Vif TR-FRET: 18%; LANA-H2B inh: 1.1; RanGTP-Imp inh: 5.7

How did COc1ccc(/C=C/C(=O)NCCCN2CCCCCC2)cc1 do in these assays?
Calb FLC: -7; HNF4A DNA FP: 8.9; ALR inh: 2; B2AR ag: 5; Vif TR-FRET: -5%; LANA-H2B inh: -7.2; RanGTP-Imp inh: -4.1

Results for Cc1cc(NC(=O)c2c([N+](=O)[O-])c(C)nn2C)no1 ?
Calb FLC: 20; HNF4A DNA FP: 1.5; ALR inh: -13; B2AR ag: 6; Vif TR-FRET: 0%; LANA-H2B inh: -7.3; RanGTP-Imp inh: 5.4

How did C=CCn1c(SCC(=O)Nc2cc(C)cc(C)c2)nnc1-c1cnccn1 do in these assays?
Calb FLC: -4; HNF4A DNA FP: -5.1; ALR inh: 7; B2AR ag: -10; Vif TR-FRET: 11%; LANA-H2B inh: -4.5

Results for COc1ccc(N2CCN(C(=O)c3ccccc3F)CC2)c([N+](=O)[O-])c1 ?
Calb FLC: 3; HNF4A DNA FP: -0.2; ALR inh: -1; B2AR ag: 4; Vif TR-FRET: inconclusive; LANA-H2B inh: -11; RanGTP-Imp inh: 3.6

High-throughput results from PubChem BioAssay.
